HNF4A DNA FP: change in binding of human HNF4 alpha to DNA. 360,000 compounds, 0.3% hits. HNF4a-FITC DNA binding, fluorescence polarization, 1 h. activity change, % at 10 µM. P41235; in the data active means activity change above about 30%, passing the limit was not always enough;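 further: controls were the assay level and a saturating level of protein; the project sought stronger binding though the title names inhibitors; some compounds called inactive have numbers as strong as hits; positive values seem to mean higher polarization but the record does not say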
Target sequence (P41235 whole entry, looked up): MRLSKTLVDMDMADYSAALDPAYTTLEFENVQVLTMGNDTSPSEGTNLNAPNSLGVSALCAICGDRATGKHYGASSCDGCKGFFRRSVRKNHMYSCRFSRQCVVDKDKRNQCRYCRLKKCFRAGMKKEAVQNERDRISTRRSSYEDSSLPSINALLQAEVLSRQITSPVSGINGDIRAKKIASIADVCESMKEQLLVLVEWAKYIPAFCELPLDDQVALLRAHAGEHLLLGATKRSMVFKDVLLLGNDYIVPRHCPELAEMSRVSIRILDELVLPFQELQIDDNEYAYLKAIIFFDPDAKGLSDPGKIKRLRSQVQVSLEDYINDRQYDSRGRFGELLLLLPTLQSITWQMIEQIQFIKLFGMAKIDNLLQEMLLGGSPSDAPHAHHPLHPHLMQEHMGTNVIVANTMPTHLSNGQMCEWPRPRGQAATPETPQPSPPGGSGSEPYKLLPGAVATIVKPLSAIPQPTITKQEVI
B2AR ag: human beta-2 adrenergic receptor agonism by FAP. P07550. 340,000 compounds, 0.43% hits. Am2.2-beta2AR cells, FAP receptor internalization, flow cytometry; reference of the scale not given here. AID 504454. response, % (no concentration beside the values);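 active means response above a set limit, near 3 SD of response in nonfluorescent compounds, cut at about 42% in these data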;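 further: stock transfer was 100 nL into about 11 µL; a reference agonist was the positive control; negative values mostly stem from fluorescent compounds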
Target sequence (P07550 whole entry, looked up): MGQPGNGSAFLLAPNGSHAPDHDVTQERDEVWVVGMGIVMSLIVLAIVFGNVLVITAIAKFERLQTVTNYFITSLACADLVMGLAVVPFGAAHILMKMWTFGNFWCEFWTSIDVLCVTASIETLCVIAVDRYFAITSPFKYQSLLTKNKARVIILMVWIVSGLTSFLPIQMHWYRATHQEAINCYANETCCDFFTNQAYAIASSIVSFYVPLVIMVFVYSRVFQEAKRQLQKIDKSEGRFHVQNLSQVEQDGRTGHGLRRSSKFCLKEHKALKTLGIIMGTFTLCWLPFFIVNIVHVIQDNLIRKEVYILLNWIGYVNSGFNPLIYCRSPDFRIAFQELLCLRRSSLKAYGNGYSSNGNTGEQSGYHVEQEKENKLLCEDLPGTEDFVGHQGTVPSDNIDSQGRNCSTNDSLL
LANA-H2A inh: blocks KSHV LANA binding to histone H2A/H2B; Q9QR71; cell-free LANA-H2A/H2B peptide, fluorescence polarization; inhibition, % (concentration not given with the values); 320,000 compounds, 0.6% hits; AID 2629; in the data active means inhibition mostly above about 10%, no sharp cut-off; inactive means mostly below about 6.7%;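 further: stock transfer was 7.5 nL into about 10 µL; 0% = median of vehicle wells and 100% = median of positive control wells; one replicate is shown; the record names a cut of 25% in any replicate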
ALR H2O2 inh: blocks human ALR sulfhydryl oxidase activity. purified ALR, DTT oxidation, H2O2 HRP-luminol luminescence. inhibition, % (test concentration not listed). 290,000 compounds, 3.8% hits. AID 485317;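 active means mean and each replicate at 75% or more; inconclusive means only one of the two met; inactive means neither met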;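 further: stock transfer was 7.5 nL into about 7.5 µL; 0% = neutral wells and 100% = wells with inactivated enzyme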
Target sequence (P55789 whole entry, looked up): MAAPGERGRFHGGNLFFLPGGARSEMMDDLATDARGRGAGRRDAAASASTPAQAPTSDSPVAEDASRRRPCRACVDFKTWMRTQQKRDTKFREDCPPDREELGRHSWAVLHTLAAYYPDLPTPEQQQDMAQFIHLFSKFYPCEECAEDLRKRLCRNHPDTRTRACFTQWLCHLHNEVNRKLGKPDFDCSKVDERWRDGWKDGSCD
Vif A3G: HIV-1 Vif–A3G interaction blockers – biochemical, TR-FRET, GST-Vif 1-94, biotin-A3G peptide, dose response retest, primary screen (AID 1117319) | TR-FRET GST-Vif / biotin-A3G peptide binding; higher % means a stronger effect; test concentration not given here; strong numbers were not always called active | inhibition, %, or IC50 in µM where a hit was titrated | 260,000 compounds, 0.57% hits;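 active means above the screen mean plus three standard deviations and confirmed in dose response; inconclusive means results disagree or hit not tested in dose response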;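 further: Vif residues 1-94 fused to GST binding biotinylated APOBEC3G peptide 110-148; 0% = full assay without inhibitor and 100% = GST in place of GST-Vif; retest series ran down from 100 µM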
Calb FLC: affects C. albicans growth with fluconazole. 300,000 compounds, 0.57% hits. growth inhibition, % (concentration not given with the values). C. albicans CaCi-2 (fluconazole-resistant clinical isolate) + fluconazole, Alamar Blue growth, 48 h. AID 1979;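 active means most replicates above 75%; inconclusive means exactly half above 75%; inactive means most below 75%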;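 further: all wells also contain fluconazole at 8 µg/ml as a sub-toxic cotreatment; 0% = median of DMSO wells and 100% = median of geldanamycin control wells; wells of about 8 µL received 7.5 nL stock; the first replicate is given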
RanGTP-Imp inh: inhibitors of RanGTP-importin-beta interaction, primary screen, biochemical, FRET, CFP-Ran, YFP-importin-beta, homogeneous | inhibition, % (concentration not given with the values) | cell-free CFP-Ran/YFP-importin-beta FRET ratio | 300,000 compounds, 1.1% hits;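 active means most replicates above 15%; inconclusive means exactly half above 15%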;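 further: 0% = DMSO wells and 100% = Ran loaded with GDP instead of GTP; wells of about 40 µL received 100 nL stock; the first replicate is given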
An asterisk follows results filed as active; ? = inconclusive; · = no result given.

Under each structure: Vif A3G | ALR H2O2 inh | LANA-H2A inh | HNF4A DNA FP | Calb FLC | B2AR ag | RanGTP-Imp inh
COc1ccc(-c2n(Cc3ccccc3)c3ccccc3[n+]2Cc2ccccc2)cc1
    11% | 2 | 3.1 | 4.8 | ? | 8 | ?
O=C(Nc1ccccc1F)C1C2C=CC3(O2)C1C(=O)N(c1cccnc1)C3C(=O)NC1CCCCC1 (centres undefined)
    -4% | · | -0.3 | -3.2 | -3 | 3 | 7.5
COc1ccccc1N1CCN(/N=C(\C)c2ccccc2O)CC1
    · | 1 | -2.6 | 4.3 | 0 | -11 | 1.3
O=C(COC(=O)CNC(=O)c1ccccc1)Nc1nc(-c2ccccc2)cs1
    · | · | · | -2.6 | -3 | 3 | 1.4
O=C(COC(=O)C12CC3CC(CC(C3)C1)C2)N1CCN(S(=O)(=O)c2ccccc2)CC1
    -5% | -45 | -1.8 | -0.3 | -24 | 10 | 5.4
CCc1nc2sc3c(O)cc(=O)[nH]c3c2cc1C
    4% | -2 | -1.8 | -30 | -20 | 4 | -0.8
CCN(c1ccccc1)c1nc2ccsc2c(=O)s1
    1% | -7 | 5.4 | 0.8 | 40 | -4 | ·
Cc1ccc(C(=O)NS(=O)(=O)c2ccc(N=NN(C)C)cc2)cc1
    -4% | -5 | 1.7 | -6.3 | ? | -4 | 1.1
CCCCNS(=O)(=O)c1ccc2nc(-c3cccnc3)cc(C(=O)NCCOC)c2c1
    · | -20 | -6.1 | 2.2 | 3 | 8 | -2.2
CC(C)c1ccccc1NC(=S)NC(C)c1ccccc1 (centres undefined)
    · | 0 | 3.5 | -0.2 | -16 | -4 | -3.8
CC(CN1CCOCC1)OC(=O)c1cccc(Cl)c1 (centres undefined)
    -3% | -3 | 1.1 | -1.1 | -3 | -4 | 4.4
O=C(Nc1nc(-c2ccco2)cs1)c1ccccc1
    ? | -9 | -0.7 | 12 | 31 | 43* | 0.0
COc1ccc(S(=O)(=O)Nc2ccc(Oc3ccsc3C(=O)O)cc2)cc1
    0% | · | -2.1 | 2.1 | 2 | 0 | 0.7
CSc1ccc(CN(C)C(C)C(=O)NCC2CCCCC2)cc1 (centres undefined)
    · | 3 | -0.1 | 2.0 | -2 | -7 | 0.6
NCCc1nnc(SCc2ccccc2)o1
    -5% | -4 | -2.0 | -3.4 | -6 | 3 | 6.7
CC1=C(N2CCOCC2)CCC1=O
    · | · | 2.0 | -2.3 | -2 | -3 | -0.4
CC(C)C(=O)Nc1ccc(S(=O)(=O)N2CCC(c3nc4ccccc4[nH]3)CC2)cc1
    3% | -3 | -4.4 | 0.0 | -3 | -5 | -2.6
COc1ccc(-c2nn(-c3ccccc3)cc2C(=O)N(C)CC(=O)Nc2ccc(N3CCOCC3)cc2)cc1
    -1% | -14 | -1.5 | 2.2 | -14 | -7 | -1.4
N/C(=N\OC(=O)c1cccs1)c1ccccc1
    -4% | -8 | -0.4 | -0.4 | -6 | 0 | 4.4
C/C(=N\NC(=O)c1cccc(Cl)c1)c1cccc(NC(=O)C(C)C)c1
    19% | -5 | 3.8 | 4.8 | -7 | 0 | 7.2
CC1(C)CCCC2=C1CC1C(=O)N(N)C(=O)C1C2 (centres undefined)
    -5% | -6 | -0.5 | 4.6 | 13 | -7 | 2.0
Cc1cccc(C(=O)OCC(=O)N2CC(=O)Nc3ccccc32)c1C
    8% | 0 | 0.4 | 4.0 | · | -13 | ·
CN(C)c1ccc([N+](=O)[O-])cc1C(=O)NCC(c1ccco1)N(C)C (centres undefined)
    · | · | 5.5 | 0.0 | 3 | -1 | 1.4
O=C(COC(=O)C1CCCCC1)Nc1cccc(F)c1
    -3% | -1 | 3.3 | 3.0 | · | -5 | ·
CC(C)(C)c1csc(NC(=O)C2=COCCO2)n1
    3% | · | 3.1 | 2.3 | 4 | 1 | 5.9
COc1cccc(OCC(O)CN(CCO)Cc2ccccc2)c1 (centres undefined)
    0% | -10 | -2.6 | 0.3 | 2 | 3 | 1.4
O=C(NNc1ccccc1)Nc1cc(Cl)ccc1Cl
    5% | · | · | 0.7 | · | 2 | ·
COc1ccc2c(c1)CC/C(=C\c1ccc(OC)c(Cn3cccn3)c1)C2=O
    -11% | -12 | 0.1 | -5.6 | -4 | 7 | -5.8
O=C(CSc1nnc(CNC(=O)C23CC4CC(CC(C4)C2)C3)n1-c1ccc(F)cc1)Nc1ccccc1
    · | -19 | 2.0 | -1.4 | 6 | 1 | ?
COCCNC(=O)C(NC(=O)C1CCCCC1)C(C)C (centres undefined)
    ? | -3 | 3.0 | 2.8 | -3 | 5 | 2.7

Sorted by SMILES length (descending): 3 of the compounds above
Under each structure: Vif A3G | ALR H2O2 inh | LANA-H2A inh | HNF4A DNA FP | Calb FLC | B2AR ag | RanGTP-Imp inh
CC(C)c1ccccc1NC(=S)NC(C)c1ccccc1 (centres undefined)
    · | 0 | 3.5 | -0.2 | -16 | -4 | -3.8
CCN(c1ccccc1)c1nc2ccsc2c(=O)s1
    1% | -7 | 5.4 | 0.8 | 40 | -4 | ·
N/C(=N\OC(=O)c1cccs1)c1ccccc1
    -4% | -8 | -0.4 | -0.4 | -6 | 0 | 4.4

Further entries:
Under each structure: Vif A3G | ALR H2O2 inh | LANA-H2A inh | HNF4A DNA FP | Calb FLC | B2AR ag | RanGTP-Imp inh
COC(=O)c1ccccc1NC(=O)CCC(=O)N1CC(C)Oc2ccc(C)cc21 (centres undefined)
    · | -13 | 4.5 | 3.4 | -4 | 3 | 3.5
Cc1ccc(-n2c(SCC(=O)N/N=C/c3ccccc3C(=O)O)nnc2-c2ccccc2)cc1
    -1% | · | -7.0 | -4.1 | -4 | 0 | 6.1
COc1ccc(N(C(C)C(=O)N/N=C/c2ccc(OC(C)C)cc2)S(C)(=O)=O)cc1 (centres undefined)
    6% | -2 | 1.8 | 3.2 | 0 | -2 | 1.2
O=C(COC(=O)[C@H](Cc1ccccc1)NC(=O)c1cccs1)NC1CC1
    · | 26 | 1.4 | -5.6 | 0 | 5 | 4.4
Cc1cc2ncn(S(=O)(=O)N3CCCCC3)c2cc1C
    -3% | -6 | -0.6 | 1.9 | -6 | 3 | 2.4
O=c1c2c3c(sc2ncn1/N=C/c1cccnc1)CCCC3
    -5% | 14 | -0.8 | -0.4 | 32 | -8 | 5.9
Cc1cc(C)nc(SCc2nnc(SCC#N)n2-c2cccc(Cl)c2)n1
    2% | 0 | -7.7 | 5.5 | -1 | 6 | -6.0
Cc1cccc2nc(-c3cccnc3)c(Nc3ccccc3)n12
    -3% | 97* | 2.0 | 4.6 | 0 | -7 | ?
O=C(NCCc1cnc[nH]1)c1ccc(-c2ccccc2)cc1
    · | 5 | 0.3 | 2.5 | 6 | 7 | 1.2
COc1cc(CNc2ccc3c(c2)OCCO3)ccc1OCC(N)=O
    0% | 99* | 0.8 | -0.7 | 18 | 6 | 4.7
O=C(c1nc2ccccn2c1CNCCCn1cccn1)N1CCCC1
    24% | 3 | -1.2 | 2.4 | -4 | 0 | 0.7
CC(=O)N1CCOc2ccc(S(=O)(=O)N3CC(C)CC(C)C3)cc21 (centres undefined)
    4% | -1 | -6.1 | -2.1 | -1 | -4 | 1.3
CC(NCCc1ccc(S(N)(=O)=O)cc1)C(=O)NCc1ccccc1 (centres undefined)
    0% | 5 | 7.6 | 0.9 | · | 5 | ?
Cc1ccccc1NC(=O)C1C2CC/C=C\CCC21 (centres undefined)
    · | 4 | 0.1 | -1.6 | 1 | -6 | 3.7
COc1ccc(CN2CCCC(N3CCN(c4cccc(Cl)c4)CC3)C2)cc1OC (centres undefined)
    · | 11 | 3.4 | -2.3 | -3 | -3 | -3.6

Quoted at random: 4 entries already listed, in no set order.
Under each structure: Vif A3G | ALR H2O2 inh | LANA-H2A inh | HNF4A DNA FP | Calb FLC | B2AR ag | RanGTP-Imp inh
COC(=O)c1ccccc1NC(=O)CCC(=O)N1CC(C)Oc2ccc(C)cc21 (centres undefined)
    · | -13 | 4.5 | 3.4 | -4 | 3 | 3.5
O=C(COC(=O)[C@H](Cc1ccccc1)NC(=O)c1cccs1)NC1CC1
    · | 26 | 1.4 | -5.6 | 0 | 5 | 4.4
O=C(CSc1nnc(CNC(=O)C23CC4CC(CC(C4)C2)C3)n1-c1ccc(F)cc1)Nc1ccccc1
    · | -19 | 2.0 | -1.4 | 6 | 1 | ?
COc1ccc(S(=O)(=O)Nc2ccc(Oc3ccsc3C(=O)O)cc2)cc1
    0% | · | -2.1 | 2.1 | 2 | 0 | 0.7

Compound profiles (already shown). Values in the order: Vif A3G | ALR H2O2 inh | LANA-H2A inh | HNF4A DNA FP | Calb FLC | B2AR ag | RanGTP-Imp inh
Listed for CC(=O)N1CCOc2ccc(S(=O)(=O)N3CC(C)CC(C)C3)cc21 (centres undefined) : 4% | -1 | -6.1 | -2.1 | -1 | -4 | 1.3
Listed for COc1ccc(N(C(C)C(=O)N/N=C/c2ccc(OC(C)C)cc2)S(C)(=O)=O)cc1 (centres undefined) : 6% | -2 | 1.8 | 3.2 | 0 | -2 | 1.2

The list continues.
Under each structure: Vif A3G | ALR H2O2 inh | LANA-H2A inh | HNF4A DNA FP | Calb FLC | B2AR ag | RanGTP-Imp inh
Cc1nnc(NC(=O)c2cccc(S(=O)(=O)N3CCOCC3)c2)s1
    3% | · | 9.9 | 0.1 | -2 | -6 | 6.9
CCOc1ccccc1NC(=O)C(=O)CC(=O)c1cccc(OC)c1
    -6% | 3 | -2.1 | -0.9 | -8 | 14 | 1.0
Cc1nn(C)cc1C(=O)NNC(=S)Nc1ccccc1
    1% | 88* | -2.4 | 2.1 | 8 | 1 | -0.1
NC(=O)C1Cc2ccccc2CN1C(=O)c1cccc(Oc2ccccc2)c1 (centres undefined)
    -5% | · | 0.4 | 2.4 | 1 | 1 | 8.5
CCOC(=O)[C@H]1[C@H]2COc3ccccc3[C@@H]2N2C(=O)CN(Cc3ccccc3)C(=O)[C@@]12C
    · | -1 | 1.5 | 2.8 | · | -2 | ·
O=C(CN1C(=O)/C(=C\c2ccc(F)cc2)Oc2ccccc21)N1CCN(c2ccccn2)CC1
    -6% | -4 | -5.2 | -2.3 | 2 | -3 | 0.1
O=C(Cc1ccc(Cl)cc1)Nc1ccccc1C(=O)N1CCCC1
    · | -11 | 3.5 | -2.0 | -1 | -2 | 8.9
CCOC(=O)CC(=O)Nc1ccc(C)cc1
    1% | -1 | 3.3 | -0.7 | -3 | 0 | 3.3
CCc1nc2sc3c(c2c(=O)n1N)CCC3
    1% | · | 0.6 | -0.6 | 0 | -4 | -3.6
CCCC1=NN(C(=O)Cc2ccc([N+](=O)[O-])cc2)C(O)(C(F)(F)F)C1 (centres undefined)
    · | -11 | 4.0 | 0.1 | 5 | 3 | 1.0
Cc1cc(C(F)(F)F)nn1Cc1n[nH]c(=S)n1-c1ccc(F)cc1
    -3% | 37 | -2.1 | 0.8 | -5 | -2 | 7.8
CCOc1ccc(NS(=O)(=O)c2ccc(C(=O)N3CCCCC3)cc2)cc1
    · | -1 | -3.5 | 1.1 | 0 | -6 | 1.7
Cn1c(=O)c2c(nc(N3CCCC3)n2CC(O)CO)n(C)c1=O (centres undefined)
    27% | 13 | 4.8 | -5.2 | 5 | -6 | 0.3
Cc1nc(C)c(C(=O)N2CCCC(CCC(=O)NCc3ccc(F)c(F)c3)C2)s1 (centres undefined)
    -5% | -8 | 12 | 0.1 | 0 | -3 | ?
CC(=O)Nn1cnc2c(c1=O)C1(CCCC1)Cc1ccccc1-2
    5% | -5 | -0.9 | -0.2 | · | 17 | ·
Cc1cc(C)c2nc(N(CCN(C)C)C(=O)c3ccc4ccccc4c3)sc2c1
    -3% | -2 | -2.3 | -0.2 | -15 | 1 | 3.9
Cc1cccc(-c2cc3nc(C)cc(N4CC(C)CC(C)C4)n3n2)c1 (centres undefined)
    0% | 0 | -0.6 | 3.3 | · | 3 | ·

Screening data (PubChem BioAssay)
